Screens (PubChem BioAssay)
Arbovirus inh: antivirals against arbovirus infection, primary screen, cell-based, full library, 10K replicate subset. arbovirus infection cell-based antiviral screen. 200,000 tested, 0.37% active. AID 1251, 2008. inhibition, % at 10 µM;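 active = inhibition from about 30%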;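 also: bluetongue infection of BSR cells; cell survival read as ATP light after 72 h; 0% = infected wells without compound and 100% = uninfected wells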
RecA intein inh: Mtb RecA intein splicing inhibitors, primary screen, biochemical, fluorescence, HTS | cell-free RecA intein splicing | inhibition, %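 (about 9 µM by stock and volumes)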 | 290,000 tested, 0.75% active | AID 2221, 2009; in the data active = inhibition above about 30%; inconclusive = no clear call, values can overlap the other calls;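 also: 0% = vehicle wells and 100% = reference inhibitor control wells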
Target sequence (P9WHJ3 whole entry, looked up): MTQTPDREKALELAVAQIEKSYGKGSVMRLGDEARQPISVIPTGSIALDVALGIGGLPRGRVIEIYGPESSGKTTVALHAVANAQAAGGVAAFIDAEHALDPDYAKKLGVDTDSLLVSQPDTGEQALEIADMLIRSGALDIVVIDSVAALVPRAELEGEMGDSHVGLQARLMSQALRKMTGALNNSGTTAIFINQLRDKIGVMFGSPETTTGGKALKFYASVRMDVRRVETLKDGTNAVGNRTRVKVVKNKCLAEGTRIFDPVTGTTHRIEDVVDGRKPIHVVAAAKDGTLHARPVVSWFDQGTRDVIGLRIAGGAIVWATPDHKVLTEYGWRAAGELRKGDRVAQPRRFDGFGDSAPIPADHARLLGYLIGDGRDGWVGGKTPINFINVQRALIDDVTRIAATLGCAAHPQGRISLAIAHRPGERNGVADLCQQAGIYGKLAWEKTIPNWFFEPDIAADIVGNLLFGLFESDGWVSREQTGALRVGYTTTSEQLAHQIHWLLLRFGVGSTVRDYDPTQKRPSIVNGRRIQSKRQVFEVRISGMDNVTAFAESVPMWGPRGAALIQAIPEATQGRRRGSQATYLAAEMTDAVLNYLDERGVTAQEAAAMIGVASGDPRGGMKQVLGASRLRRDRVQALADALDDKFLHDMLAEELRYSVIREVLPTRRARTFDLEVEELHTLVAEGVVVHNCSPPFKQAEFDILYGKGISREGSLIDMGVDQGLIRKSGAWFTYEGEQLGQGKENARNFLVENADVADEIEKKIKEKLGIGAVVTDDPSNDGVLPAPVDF
YopH PTP inh: YopH tyrosine phosphatase inhibitors, primary screen, biochemical, fluorescence Ex485/Em525; 140,000 tested, 0.16% active; YopH tyrosine phosphatase [Yersinia enterocolitica]; AID 898, 2007; inhibition, %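 (about 10 µM by stock and volumes)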;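 active = inhibition of 50% or more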;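 also: controls were vehicle for no effect and minimum signal wells for full effect; inactives centre near -20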
Mtb betalactam: beta-lactam sensitization of Mtb H37Rv, H37Rv | M. tuberculosis H37Rv growth with meropenem, percent inhibition; hits of this screen are not shown here | inhibition, % at 25 µM | 330,000 tested, 0.27% active;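 active = about 74% or more and at least 40 points above the plate without the antibiotic, then above 30% in a dose series; inconclusive = first-round hits that could not be retested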;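 also: growth measured after seven days incubation then overnight dye step; 0% = bacteria only wells and 100% = bacteria with antibiotic; twin plates without the antibiotic show which effects depend on it; some results filed as inactive read as strong as hits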
Mtb H37Rv: M. tuberculosis H37Rv growth inhibitors, H37Rv strain (AID 1626); 220,000 tested, 0.95% active; M. tuberculosis H37Rv growth inhibition; higher % means a stronger effect; inhibition, % at 10 µM; hits with a dose series show IC50 in µM;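 active = confirmed in a dose series; inconclusive = inhibition above 80% but not taken into the dose series; inactive = below 80% or under 30% at every dose of the series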;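 also: bacteria incubated seven days before Alamar blue readout; 0% = bacteria only wells and 100% = bacteria with antibiotic wells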
Arbovirus inh repeat: second read-out of Arbovirus inh, no call of its own (marks repeat the call); inhibition, %; measured here: 10K subset replicate screen; many hits read low in the repeat;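 first of two repeat runs on a subset; 0% = infected and 100% = uninfected wells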
* hit, by the source's call; ? = inconclusive; nt = not tested or not shown. A portion of the library; the hit share may differ from the screen's.

SMILES | Arbovirus inh | RecA intein inh | YopH PTP inh | Mtb betalactam | Mtb H37Rv | others
CN(C(=O)COC(=O)/C=C/c1cn(-c2ccccc2)nc1-c1ccc2c(c1)OCCO2)C1CCS(=O)(=O)C1 (configuration not stated) | -9 | 4.0 | nt | 8 | -2%
C=CCNC(=O)C1CC(=O)N(c2ccc(OCC(=O)Nc3ccc(Cl)cc3)cc2)C1 (configuration not stated) | nt | -0.3 | nt | -5 | nt
CCOc1ccc(CNC(=S)Nc2ccccc2)cc1Cl | nt | 3.7 | nt | 5 | nt
CCC(C(=O)Nc1nc(C)c(C(=O)OC)s1)c1ccccc1 (configuration not stated) | -22 | 3.7 | nt | -1 | 8%
CCc1ccc(-c2csc(NC(=O)Oc3ccccc3)n2)cc1 | 7 | -0.3 | -22 | 8 | 47%
Cc1cccc(CSc2nc3nc(C)cc(C)n3n2)c1 | nt | -2.0 | nt | 4 | nt
CCCCc1nc2cc(C(=O)N3CCCCC3COC)ccc2o1 (configuration not stated) | nt | -1.1 | nt | -2 | nt
C=C1C(C(=O)Nc2cccc(OC)c2)C1C(=O)Nc1cccc(OC)c1 (configuration not stated) | 2 | -0.6 | nt | -6 | 8%
Cc1cc(C(F)(F)F)nn1Cc1n[nH]c(=S)n1-c1ccc(Cl)cc1 | 5 | nt | -21 | -9 | nt
COC(=O)N/N=C/c1ccc([N+](=O)[O-])o1 | -10 | -2.3 | -86 | -1 | -1%
CC(CN(C)C1CCN(C)CC1)c1ccccc1 (configuration not stated) | nt | 0.3 | nt | -7 | nt
CCOC(=O)c1sc2nc3c(cc2c1N)COC(C)(CC)C3 (configuration not stated) | -1 | -4.7 | 23 | -4 | -5%
O=C(NC1C=CS(=O)(=O)C1)c1sc2ccccc2c1Cl (configuration not stated) | 20 | 9.7 | 7 | -2 | -5%
COc1nsnc1NS(=O)(=O)c1ccc(NC(=S)NC(=O)c2ccncc2)cc1 | nt | -4.0 | nt | 2 | -4%
O=c1[nH][nH]cc1C=Nc1ccccc1Cl | 2 | 4.5 | nt | 2 | -2%
CNC(=O)COC(=O)/C=C/c1c(C)nn(-c2ccccc2)c1C | -3 | -2.9 | -25 | -5 | -5%
CN1CCN(C(=O)c2ccc(COc3ccc(C(C)(C)C)cc3)o2)CC1 | -10 | 0.5 | 5 | 11 | -7%
Cc1ccn(C(=O)c2cc3cc(Cl)ccc3oc2=O)n1 | 3 | -2.4 | -27 | 0 | -4%
CN(c1ccccc1)S(=O)(=O)c1cccc(C(=O)OCC(=O)Nc2ccc3[nH]c(=O)[nH]c3c2)c1 | nt | -0.1 | nt | -1 | nt
CCOc1ccc(OCCOc2cccc(C(F)(F)F)c2)cc1 | 3 | 0.2 | -31 | -1 | 20%

The last 2 entries of the part above lead into the next:
SMILES | Arbovirus inh | RecA intein inh | YopH PTP inh | Mtb betalactam | Mtb H37Rv | others
CN(c1ccccc1)S(=O)(=O)c1cccc(C(=O)OCC(=O)Nc2ccc3[nH]c(=O)[nH]c3c2)c1 | nt | -0.1 | nt | -1 | nt
CCOc1ccc(OCCOc2cccc(C(F)(F)F)c2)cc1 | 3 | 0.2 | -31 | -1 | 20%
CCC(=O)Oc1ccc(-c2cnc3ccccc3n2)cc1 | -8 | nt | -59 | 49 | 43%
COC(=O)c1ccc(N2NC(=O)/C(=C/c3ccc(OC)c(OC)c3)C2=O)cc1 | nt | -3.8 | nt | 75 | nt
Cn1c(Cc2ccccc2)nnc1SCC(=O)NC1CCCC1 | nt | -3.7 | nt | 1 | nt
COCCn1c(C)cc(C(=O)CSc2nc3ccccc3c(=O)n2Cc2ccco2)c1C | -1 | -0.3 | -24 | 0 | -5%
CCOP(=O)(OCC)C(C)(C)NC(=O)C(Cl)(Cl)Cl | 9 | 0.3 | 4 | 8 | -9%
CCC1NC(C(=O)O)Cc2c1[nH]c1ccccc21 (configuration not stated) | nt | -3.2 | nt | -2 | nt
Cc1cc(C(=O)CSc2nc3ccccc3n2C)c(C)n1C | 6 | 2.3 | -8 | -4 | -14%
CCOC(=O)c1cc2sc(C)cc2n1CC(=O)Nc1ccc2c(c1)OCCO2 | -13 | -0.3 | -24 | 1 | 2%
COc1ccc(C2C(C(C)=O)=C(O)C(=O)N2C)c(OC)c1 (configuration not stated) | -3 | 1.7 | -27 | -5 | -4%
O=C(/C=C/c1ccc(F)cc1)Nc1cc(S(=O)(=O)N2CCOCC2)ccc1N1CCCC1 | 13 | -3.3 | -28 | 0 | 12%
Cc1ccccc1OCC(=O)N1CCC2(CC1)CC(=O)c1ccccc1O2 | nt | 0.1 | nt | -3 | nt
O=C(O)c1ccccc1C(=O)c1ccc(N2CCCC2)c([N+](=O)[O-])c1 | 2 | -3.2 | nt | -6 | -2%
C/C(Cl)=C\COc1cc(C)nc2c(Br)cccc12 | 14 | 3.4 | nt | 86 | 3%
COc1ccccc1NC(=O)CCn1c(=S)oc2ccccc21 | nt | 1.2 | nt | 1 | nt
CCC1(C)Cc2ccccc2-c2[nH]c(=S)[nH]c(=O)c21 (configuration not stated) | nt | 2.8 | nt | 0 | nt
O=C(COc1ccc(Cl)cc1)Nc1ccc(NC(=O)c2ccco2)cc1 | nt | -4.2 | nt | -3 | nt
CC(C)COc1ncnc2c1sc1nc3c(cc12)COC(C)(C)C3 | nt | -0.6 | nt | 0 | -13%
Cc1cc(C)n2nc(C(=O)N(C)c3c(N)n(Cc4ccccc4)c(=O)[nH]c3=O)nc2n1 | nt | -2.3 | nt | -1 | nt
O=C(CSc1nc2c(cnn2-c2ccc(F)cc2)c(=O)[nH]1)Nc1nccs1 | -9 | -15 | -15 | -7 | 4%
COC(=O)c1ccc(CSc2nc3ccccc3c(=O)n2Cc2ccco2)o1 | 16 | 12 | -120 | -8 | 7%
COc1ccc(C2=NOC(C(=O)Nc3cccnc3Cl)C2)cc1 (configuration not stated) | -2 | -0.1 | nt | 2 | -3%
Cc1cc(C(=O)OCC(=O)Nc2c(Cl)cccc2C(F)(F)F)c(C)o1 | nt | -0.6 | nt | -3 | nt
Cc1ccsc1C(=O)N[C@@H](C)c1nnc2ccccn12 | nt | -3.9 | nt | 6 | nt
COc1ccc(C(C)C)cc1S(=O)(=O)N1CCC(C(=O)NCc2cccnc2)CC1 | nt | 1.1 | nt | -4 | nt
Cc1ccc(C2C3=C(NCCN=C3c3ccccc3)C(=O)N2c2ccccc2)cc1 (configuration not stated) | -6 | -4.0 | -12 | 11 | 6%
O=C(NCc1ccccc1Cl)c1ccc(Cn2cc(C(F)(F)F)ccc2=O)cc1 | 2 | 3.2 | -27 | -16 | 1%
O=C(COC(=O)c1ccc(S(=O)(=O)Nc2ccccc2)cc1)NCc1ccco1 | 10 | 2.1 | 13 | 2 | 4%
Cc1cc(OCCOCCNC(C)C)cc(C)c1Cl | -18 | -2.9 | 0 | 2 | nt
CCOC(=O)c1cnc(SC2CCc3ccccc3C2=O)nc1N (configuration not stated) | -14 | 14 | -18 | -12 | -8%
CCN(CC)c1ccc(NC(=O)COC(=O)c2cccs2)cc1 | 2 | -1.7 | -7 | 6 | nt
O=C1N(c2ccccc2)C[C@@H]2C[C@@H](c3cccs3)N3CCC[C@@]123 | -25 | 1.5 | nt | -8 | -1%
O=S(=O)(NCc1ccccc1)c1ccc(F)cc1Br | nt | 1.6 | nt | -2 | -4%
COc1ccccc1/C=N\Nc1cc(C)nc(-n2nc(C)cc2C)n1 | -22 | 0.8 | -12 | 97 | ?
O=C(NCc1ccccc1)c1cccc(COc2ccccc2Cl)c1 | -13 | 3.6 | -12 | 10 | nt
CCn1c(NC(=O)C(C)C)c2ccccc2nc1=O | -2 | 0.0 | nt | -3 | -2%
Cc1cccc(C)c1NC(=O)c1ccc2c(c1)CCN2S(C)(=O)=O | nt | 1.5 | nt | -1 | nt
O=C(Nc1ccc(Cl)c(S(=O)(=O)N2CCOCC2)c1)c1ccc(OCC2CCCO2)cc1 (configuration not stated) | -25 | nt | nt | -3 | 13%
COc1ccc(/C=N/NC(=O)c2cccc(NC(=O)c3ccccc3)c2)c(C(=O)O)c1OC | -4 | 3.8 | -26 | -2 | -6%
Cc1ccc2c(c1)N(CC(=O)NCC1CCCO1)C(=O)C(C(C)C)O2 (configuration not stated) | nt | -2.5 | nt | -7 | nt
CC(C)CN(C(=O)CC(C)c1ccccc1)c1c(N)n(Cc2ccccc2)c(=O)[nH]c1=O (configuration not stated) | nt | 1.0 | nt | -15 | nt
Cc1ccc(NC(=O)Cn2c3ccc(F)cc3c3nc4n(c(=O)c32)CCS4)cc1F | 1 | -0.1 | nt | -1 | 4%
O=C(Cc1ccc(NS(=O)(=O)c2ccc(F)cc2)cc1)NCc1cccnc1 | nt | -1.5 | nt | -5 | nt
CCCn1c(=O)c(C(=O)NCc2ccc(OC)c(OC)c2)c(O)c2ccccc21 | -20 | 2.2 | -47 | -3 | 0%
Cc1cnc(N2C(=O)c3ccc([N+](=O)[O-])cc3C2=O)s1 | 8 | -7.0 | nt | -1 | 0%
S=c1[nH]c(-c2ccccc2)cn1/N=C/c1ccncc1 | nt | -4.1 | nt | -7 | -5%
COc1cc(NC(=O)COc2ccccc2[N+](=O)[O-])ccc1NC(=O)c1ccco1 | nt | 0.5 | nt | 7 | nt
CCOc1ccc(S(=O)(=O)NC(C)C(=O)NCc2ccccn2)cc1 (configuration not stated) | nt | -1.2 | nt | -7 | nt
Cn1c(-c2ccccc2[N+](=O)[O-])[n+](C)c2ccccc21 | nt | -0.3 | nt | -2 | -5%
CCN(CC)S(=O)(=O)c1ccc(NCc2ccccc2)nc1 | -2 | 2.5 | -48 | -1 | 6%
Cn1c(SCc2ccc(C(=O)Nc3nccs3)cc2)nnc1-c1ccccc1 | 20 | -0.5 | 2 | -9 | 1%
CC1Cc2nc(SCC(N)=O)n(Cc3ccccc3)c(=O)c2S1 (configuration not stated) | -1 | 1.2 | nt | 0 | 4% | Arbovirus inh repeat=4
Cc1cccc(N2CCN(C(=O)CCN3C(=S)NC(C)(C)CC3C)CC2)c1C (configuration not stated) | 17 | -0.4 | nt | 2 | 12%
CCOC(=O)c1cnc(-n2nc(C)cc2C)nc1Nc1ccc(OC)cc1 | 4 | 0.3 | -12 | 91 | 0.64µM*
CC(=O)OCCn1c(Br)nc2c1c(=O)[nH]c(=O)n2C | 5 | 0.0 | -45 | -12 | -1%
CCCCc1n[nH]c(=S)n1Cc1ccccc1 | 4 | -2.3 | nt | 2 | -1%
Cc1ccccc1-c1nc(CN(Cc2c(C)nn(C)c2C)C2CC2)c(C)o1 | 7 | -7.5 | nt | -2 | -7%
Clc1ccccc1OCc1nc(-c2ccc(Br)o2)no1 | -27 | 6.9 | -45 | -4 | 19%
O=C1CCCN1CCCN=c1c([N+](=O)[O-])nn(-c2ccc(Cl)cc2)n1O | -29 | -8.7 | nt | nt | 53%
CC(=O)NC(c1cccc([N+](=O)[O-])c1)c1c(OC(C)=O)ccc2ccccc12 (configuration not stated) | 6 | 7.2 | 2 | -8 | -3%
O=S1(=O)CCN(Cc2ccccc2C(F)(F)F)CC1 | 7 | -1.8 | nt | -4 | 5%

Retrieved by structure from the entries so far (4):
SMILES | Arbovirus inh | RecA intein inh | YopH PTP inh | Mtb betalactam | Mtb H37Rv | others
O=C1CCCN1CCCN=c1c([N+](=O)[O-])nn(-c2ccc(Cl)cc2)n1O | -29 | -8.7 | nt | nt | 53%
Cc1cccc(N2CCN(C(=O)CCN3C(=S)NC(C)(C)CC3C)CC2)c1C (configuration not stated) | 17 | -0.4 | nt | 2 | 12%
Cc1ccc(NC(=O)Cn2c3ccc(F)cc3c3nc4n(c(=O)c32)CCS4)cc1F | 1 | -0.1 | nt | -1 | 4%
COc1cc(NC(=O)COc2ccccc2[N+](=O)[O-])ccc1NC(=O)c1ccco1 | nt | 0.5 | nt | 7 | nt

(further entries)
SMILES | Arbovirus inh | RecA intein inh | YopH PTP inh | Mtb betalactam | Mtb H37Rv | others
COc1ccc(O)c(/C=N/NC(=O)CSc2nnc(C)n2-c2ccccc2)c1 | -8 | -2.2 | -28 | -10 | 2%
COc1ccc(Br)cc1/C=N/NC(=O)C(c1ccncc1)N1CCOCC1 (configuration not stated) | 1 | 2.7 | 0 | 17 | -3%
C=C(C)CNC(=S)N/N=C(\C)c1ccc(-n2ccnc2)cc1 | -8 | -3.0 | -19 | ? | 4%
CCS(=O)(=O)n1nc(-c2ccccc2)nc1SC | 6 | -0.6 | -22 | 11 | -8%
O=C(Nc1ccccc1-c1ccccc1)c1cccc(C(F)(F)F)c1 | -3 | 0.0 | -32 | 6 | 11%
CN1CCN(CC(O)COC(c2ccc(Cl)cc2)c2ccc(Cl)cc2)CC1 (configuration not stated) | nt | 1.8 | nt | 8 | nt
Cc1ccc(S(=O)(=O)N2CCN(CC(=O)Nc3ccc([N+](=O)[O-])cc3)CC2)cc1C | 1 | -0.5 | -31 | 6 | 10%
